From PubChem
VACV mCherry inh = vaccinia inhibition (mCherry reporter); Vaccinia virus mCherry reporter infection, fluorescence; about a quarter of the inactives have no number; Potency, µM (titrated, usually from 36.5 µM), for the others: top-dose activity change, negative = inhibition, hits mostly inhibitors; 310,000 compounds, 0.63% hits; AID 720579; active = well fitted inhibition curve with a large enough effect; inconclusive = small, poorly fitted or top-dose-only effect; inactive = no such curve, though single readings can be large or run the other way; tested in A549 cells; further: nearly all actives have a fitted effect of over 35% in size; inactives centre near -10
VACV Venus inh = vaccinia inhibition (Venus reporter) | Potency, µM (highest dose often 36.5 µM), inactives show at the top dose activity change, negative = inhibition, hits mostly inhibitors | AID 720580 | 330,000 compounds, 0.46% hits | Vaccinia virus Venus reporter expression, fluorescence; active means well fitted inhibition curve with a large enough effect; inconclusive means small, poorly fitted or top-dose-only effect; inactive means no such curve, though single readings can be large or run the other way; tested in A549 cells; further: nearly all actives have a fitted effect of over 30% in size; inactives centre near -10
Starred values were filed as active, the others as inactive; i = inactive; u = inconclusive; x = no result given; & = joins results of further samples; [ ] = dose if it differs, or a comment. On the % scale 0 is the no-effect control and ±100 the full control effect; potency means the concentration at half of the fitted maximal effect. Rows were taken by chance; overall some 0.88% were active at least once.

The line under a structure holds: VACV mCherry inh	VACV Venus inh
- CC(=O)c1cccc(NC(=O)N2CCCC2C(=O)NCc2ccc3c(c2)OCO3)c1 (centres undefined)
  -4%	-7%
- COc1ccc(OCCC(=O)OCC(=O)Nc2ccc(S(=O)(=O)N3CCOCC3)cc2)cc1
  -13%	-5%
- O=C(NC1CCCCC1)NC1CCN(S(=O)(=O)Cc2ccccc2)CC1
  i	-16%
- CC(c1ccco1)N(C(=O)c1ccc(Cl)s1)c1ccccn1 (centres undefined)
  -5%	-3%
- CCCCCn1c(-c2cccc(C)c2)nc2ccccc21
  -7%	-5%
- Cc1cc(C(=O)COC(=O)C2=COCCO2)c(C)n1-c1cccc(F)c1
  -2%	-17%
- CS/C(=N\S(=O)(=O)c1cccs1)Nc1ccc(N2CCOCC2)cc1
  -9%	-9%&-14%
- CCOc1ccc(Cl)cc1CNCCNCCO
  -11%	-8%
- O=C(NNS(=O)(=O)c1ccccc1C(F)(F)F)c1cc2ncc(C(F)(F)F)cc2s1
  -3%	-2%
- O=C(NCCN1CCOCC1)c1ccc(NS(=O)(=O)c2ccccc2)cc1
  i	-15%
- COc1ccccc1NC(=O)CCC(=O)OCc1cccc([N+](=O)[O-])c1
  -3%	-20%
- Cc1ccc(-n2nnnc2SCC#N)cc1
  i	7%
- Cc1oc(-c2ccc(C(=O)Nc3ccccc3F)cc2)nc1COc1ccccc1
  i	-13%
- CC(Sc1ccc(Cl)cc1)C(=O)NCC(c1ccco1)N1CCCCC1 (centres undefined)
  0%	-23%
- O=C(Nc1nnc(-c2ccc(Cl)cc2)o1)C1=COCCO1
  i	-21%
- CCc1c(-c2ccccc2OC)ncn1Cc1cccc(-c2ccccc2)c1
  u	u
- CCC(=O)NCCNc1nc2cc(C)cc(C)c2cc1C#N
  -14%	-29%
- O=C(NNc1nc2ccc(F)cc2s1)c1cccc(F)c1
  u	-25%
- COc1cc(OC)cc(C(=O)Nc2cccc(NC(=O)c3cccs3)c2)c1
  i	-19%
- CC(=O)Nc1cccc(-c2ccnc3c2CC(C(=O)NC(C)C)O3)c1 (centres undefined)
  -13%	-9%

Following part:
The line under a structure holds: VACV mCherry inh	VACV Venus inh
- C=C1C[C@]2(O)[C@@]3(C)CCC(=O)C(C)(C)C3=C(O)C(=O)[C@@]2(C)[C@@H]2C(=O)O[C@@](C)(C(=O)OC)C(=O)[C@@]12C
  -5%	1%
- CCOP(=O)(OCC)c1nc(-c2ccc(C)cc2)oc1NCc1ccccc1
  -22%	0%
- C[C@@H]1CCCCO[C@H](CN(C)C(=O)Nc2ccc(F)cc2)[C@@H](C)CN([C@H](C)CO)C(=O)c2cc(NC(=O)c3ccccc3)ccc2O1
  -25%	-28%
- CSc1ccc(NC(=O)C2(C)CCN2C(=O)C2(c3ccccc3)CC2)cc1 (centres undefined)
  -14%	-8%
- Cc1ccc(CN2CCN(/N=C/c3cc(Br)cc(Br)c3O)CC2)cc1
  1%	9%
- CCn1c2ccccc2c2cc(NC(=O)COC(=O)c3ccc(O)cc3)ccc21
  11µM*	u
- O=C(Cc1ccccc1)NNC(=O)c1ccccc1C(=O)O
  -22%	-6%
- O=C(C1CC(=O)N(c2ccccc2)C1)N1CCN(C2=NS(=O)(=O)c3ccccc32)CC1 (centres undefined)
  -8%	-8%
- O=C(/C=C/c1cccs1)N1CCC2(CC1)Oc1ccc(Cl)cc1C(=O)C21CC(c2ccc(Cl)cc2)=NO1 (centres undefined)
  -14%	-4%
- CC1(C(=O)NCc2ccco2)CCN1C(=O)C1(c2ccccc2)CC1 (centres undefined)
  i	4%
- Cc1ccc(NC(=O)CSCC(=O)N2CCN(c3cccc(C(F)(F)F)c3)CC2)cc1
  -23%	-8%
- CCOc1cc(C2C(C(=O)OC)=C(C)N=C3SC(C)C(=O)N32)ccc1OC(C)=O (centres undefined)
  i	-17%
- Cc1ccc(S(=O)(=O)Nc2c(NC3CCCCC3)c3ccccc3oc2=O)cc1
  5%[7.34 µM]	3%[7.34 µM]
- CCCCCc1cc[n+](CC(=O)c2ccccc2)cc1
  u	u
- Cc1ccc(Cn2c(N)nc3ccccc32)cc1
  -18%	-13%
- COc1ccc(Cc2nnc(NC(=O)c3ccc(OC)c(OC)c3)s2)cc1
  i	-16%
- N#Cc1ccc(Oc2c(Cl)cncc2Cl)cc1
  u	u
- Cc1c(-n2c(CN3C(=O)c4ccccc4C3=O)nc3ccccc3c2=O)c(=O)n(-c2ccccc2)n1C
  x	-6%
- O=C(/C=C/c1cccc([N+](=O)[O-])c1)Nc1ccccn1
  i	-16%
- COc1ccc(S(=O)(=O)N2CCOCC2)cc1NC(=O)Cc1ccc(F)cc1
  -15%	0%

(further entries)
The line under a structure holds: VACV mCherry inh	VACV Venus inh
- COC(=O)c1sccc1NC(=S)Nc1ccccc1
  -1%	-13%
- CCOc1cc(/C=C2\C(=O)NC(=O)N(C)C2=O)cc([N+](=O)[O-])c1O
  -12%	-6%
- O=C(c1cccc(N2C(=O)C3C4C=CC(C4)C3C2=O)c1)N1CCCc2ccccc21 (centres undefined)
  -2%	-15%
- COc1ccc2[nH]c(C)c(C(=O)CN3CCc4cc(OC)c(OC)cc4C3)c2c1
  -2%	-6%
- Cc1cc(NC(=O)C(C)SCC(=O)OCC(=O)Nc2c(C)cccc2C(C)C)no1 (centres undefined)
  -17%	-8%
- CCOC(=O)c1c(C)n(-c2ccc(OC)cc2)c2c(C/C(C)=N/O)c(Br)c(OC)c(O)c12
  x	-18%
- CCCC/C(C)=N/NC(=O)CN(c1ccc(Br)cc1)S(=O)(=O)c1ccccc1
  -2%	-11%
- CC1(C)C[C@@H]2C[C@@](C)(CN2C(=O)c2cc(COc3cccc(C(F)(F)F)c3)on2)C1
  -12%	-23%
- Cc1cccc(C(=O)Oc2ccccc2/C=N/NC(=O)c2ccc(NC(=O)C(C)(C)C)cc2)c1
  -28%	-21%
- CCN1C(=O)[C@H]2[C@@H](c3ccc(C)cc3)N3C(=O)N(c4ccc(OC)cc4)C(=O)[C@@]3(Cc3ccccc3)[C@H]2C1=O
  -8%	-8%
- Cc1ccc(OCc2nc3ccccc3n2C(C(=O)NC(C)(C)C)c2ccncc2)cc1 (centres undefined)
  28%	-4%
- CCOC(=O)C1=C(O)C(=O)N(c2ccc(S(N)(=O)=O)cc2)C1c1ccc(Br)cc1 (centres undefined)
  i	-2%
- O=C(NCc1nc2ccccc2[nH]1)C1=C[C@H](C2CC2)C[C@H](OCc2ccc(CO)cc2)O1
  i	-16%
- CCc1ccccc1NC(=O)c1ccc2c(O)c(S(=O)(=O)c3ccc(OC)cc3)c(=O)[nH]c2c1
  i[7.34 µM]	-1%[7.34 µM]
- CCCCNC(=O)CC1NCCNC1=O (centres undefined)
  -6%	-3%
- Cc1ccc(-n2c(=O)c3ccc(C(=O)NCc4ccco4)cc3n(Cc3ccccc3Cl)c2=O)cc1
  -24%	-21%
- COc1ccc(C2(C(=O)Nc3ccc(OC)cc3OC)CCCC2)cc1
  -4%	7%
- COC(=O)C1=C(C(=O)OC)[C@@H]2N(Cc3ccccc3)c3ccccc3[C@@]23C[C@@H](C(=O)OC)N(C(=O)c2cc(C)oc2C)C3=N1
  -12%	u
- CCOc1ccc(OCC)c(Nc2nc3ccc(C(=O)c4ccccc4)cc3n3cnnc23)c1
  -15%	-4%
- C=CCN(C(=O)CCC(=O)Nc1cc(C)on1)C(C(=O)NC(C)(C)CC)c1cccc(OC)c1OC (centres undefined)
  i	-8%

Compound profiles (already shown). Values in the order: VACV mCherry inh	VACV Venus inh
`COC(=O)c1sccc1NC(=S)Nc1ccccc1` in the list: -1%	-13%
`Cc1ccc(-n2nnnc2SCC#N)cc1` in the list: i	7%
`COC(=O)C1=C(C(=O)OC)[C@@H]2N(Cc3ccccc3)c3ccccc3[C@@]23C[C@@H](C(=O)OC)N(C(=O)c2cc(C)oc2C)C3=N1` in the list: -12%	u

Further records follow:
The line under a structure holds: VACV mCherry inh	VACV Venus inh
- Cc1cccn2c(=O)c3cc(C(=O)NC4CCCC4)c(=N)n(C4CCCCC4)c3nc12
  i	-12%
- CCOC(=O)CCCCCNC(=O)c1ccc(F)cc1F
  i	-9%
- Cc1ccc(S(=O)(=O)c2nc(S(=O)(=O)c3ccc(C)cc3)c(NCCCOC(C)C)s2)cc1
  -10%	-11%
- Cc1ccc(S(=O)(=O)N(C)CC(=O)Nc2cccnc2)cc1
  -15%	6%
- COc1cccc(OCc2cc(C(=O)N3CCCC3c3ccccn3)no2)c1 (centres undefined)
  -17%	-16%
- CCN=C1NN=C(c2cc(C)n(Cc3ccco3)c2C)CS1
  i	1%
- CNC[C@H](CC1CCCCC1)NC[C@H](NCCC1CCCC1)[C@H](C)O
  -16%	u
- CCN1C(=N)N(c2ccccc2)C(=O)C(CC)(CC)C1=O
  i	-5%
- COC(=O)c1ccccc1NC(=O)CSc1nnnn1-c1ccc(C)cc1C
  i	-11%
- O=C(NCCCN1CCOCC1)/C(=C/c1ccc(-c2cccc([N+](=O)[O-])c2)o1)NC(=O)c1ccccc1
  -2%	-11%
- CCOc1nc2ccccc2nc1NS(=O)(=O)c1ccccc1
  -11%	-5%
- Cc1cnc(-n2ncc(C(=O)NCc3ccncc3)c2C2CC2)nc1-c1cccs1
  u	-28%
- CCOC(=O)C1=C(C)N(C[C@@H]2CC[C@@H](Cc3ccc(-c4ccccc4)cc3)O2)C(=O)NC1c1ccc(-c2ccccc2)cc1 (some centres undefined)
  u	-6%
- c1ccc(N2CCN(CCc3nnc4n3CCCCC4)CC2)cc1
  i	-17%
- COc1ccc(CN(C(=O)Cc2coc3ccc(C)cc23)C2CCS(=O)(=O)C2)cc1 (centres undefined)
  -2%	4%
- C[C@]12c3[nH]c4cc(-c5ccco5)ccc4c3CCN1C(=O)[C@@H](CC(=O)NCCN1CCOCC1)C[C@@H]2C(=O)N1CCOCC1
  i	-10%
- Cc1ccc(-c2nnc(SCC(=O)NC(C)(C)C)nc2-c2ccc(C)cc2)cc1
  -11%	1%
- COc1ccc(-c2[nH]ncc2-c2ccc(Cl)cc2)c(O)c1
  x	u
- CCC1C(c2ccccc2)N(C)C(c2ccccc2)CC1(O)c1ccccc1 (centres undefined)
  u	-21%
- CC(C)c1nnc(NC(=O)CC23CC4CC(CC(C4)C2)C3)s1
  i	-10%

Later entries
The line under a structure holds: VACV mCherry inh	VACV Venus inh
- O=C(CSc1ccc(-c2ccc(Cl)cc2)nn1)NC1CCCC1
  -14%	-6%
- CCCc1nc(NCCO)c(C#N)c2c1CCCC2
  i[7.34 µM]	-10%[7.34 µM]
- COC(=O)c1ccc(N2CCOCC2)c(NC(=O)c2cc3ccccc3o2)c1
  -18%	-2%
- NNC(=O)CN1C(=O)Nc2ccc(Br)cc2C1c1ccccc1 (centres undefined)
  -18%	-1%
- CCOc1ccc(S(=O)(=O)Nc2ccc3oc(C)c(C(=O)OC(C)C)c3c2)cc1
  -23%	-19%
- Nn1c(SCC(=O)N2CCCC2)nnc1C1CCCCC1
  -29%	-2%
- COC(=O)c1cccc(CN2C(=O)C(C)Sc3ccc(C(C)=O)cc32)c1 (centres undefined)
  -10%	-3%
- CCN(c1cc(C)cc(C)c1)S(=O)(=O)c1nnc(NC(=O)c2ccccc2C)s1
  -13%[7.34 µM]	-9%[7.34 µM]
- CC(NC(=O)C12CC3CC(CC(C3)C1)C2)c1ccc(F)cc1 (centres undefined)
  -15%	-5%
- O=C(c1ccc(Cl)c(S(=O)(=O)N2CCCC2)c1)N1CCOCC1
  -13%	-13%
- Cn1ccnc1C(=O)c1cccc(Br)c1
  -18%	-16%
- Cc1cccc(NC(=O)CSc2ncnc3nc[nH]c23)c1C
  -17%	-8%
- Cc1ccc(NC(=O)c2cc3c(=O)[nH]c4ccccc4c3n2C)cc1F
  8%	-2%
- CCN1C(=O)[C@H]2[C@@H](c3ccc(Cl)cc3)N3C(=O)CN(CC4CC4)C(=O)[C@@]3(Cc3ccccc3)[C@H]2C1=O
  -15%	2%
- CCc1ccc(CNC(=O)c2ccc3c(c2)nc2n3CCCCC2)cc1
  -13%	-15%
- Cc1cc(C(=O)COC(=O)CCc2nc3ccccc3c(=O)[nH]2)c(C)n1CC1CCCO1 (centres undefined)
  8%	-7%
- Cc1[nH]c(C)c(S(=O)(=O)Nc2ccccc2Cl)c1C(=O)N1CCCC1
  i[7.34 µM]	0%[7.34 µM]
- Cc1cc(C)c2oc(-c3cccc(NC(=O)c4cc5ccccc5o4)c3)nc2c1
  5%	2%
- CN(C)c1ccc(N=Cc2nc(-c3ccccc3)oc2O)cc1
  -21%	25%
- CCOC(=O)c1cccc(NC(=O)C2=C(C)C(=O)OC23CCCCC3)c1
  -5%	-4%
- CCOC(=O)C(=CNc1ccc2c(c1)nnn2-c1ccc(Cl)cc1)C(=O)OCC
  -20%	-1%
- O=C(NCc1ccccc1)c1ccc2c(c1)CCN2S(=O)(=O)c1ccccc1
  -16%	-13%
- CCc1ccc(N2CC(C(=O)OCC(=O)c3c(N)n(CC(C)C)c(=O)n(C)c3=O)CC2=O)cc1 (centres undefined)
  -10%	8%

Random excerpt: four records from the list.
The line under a structure holds: VACV mCherry inh	VACV Venus inh
- O=C(CSc1ccc(-c2ccc(Cl)cc2)nn1)NC1CCCC1
  -14%	-6%
- Cn1ccnc1C(=O)c1cccc(Br)c1
  -18%	-16%
- CC(NC(=O)C12CC3CC(CC(C3)C1)C2)c1ccc(F)cc1 (centres undefined)
  -15%	-5%
- CCc1ccc(CNC(=O)c2ccc3c(c2)nc2n3CCCCC2)cc1
  -13%	-15%
